High-throughput results deposited in PubChem BioAssay by several laboratories.
Hsc70 ATP site: small molecules displacing fluorescent ligand from Hsc70 – biochemical, fluorescence polarization, primary screen (AID 568); 83,000 tested, under 10 active; Hsc70 fluorescence polarization, probe displacement; higher % means a stronger effect; strong numbers were not always called active; displacement, % at 20 µM, or IC50 in µM where a hit was titrated;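 active = displacement above 50% without optical interference and an IC50 on retest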;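 note: ATPase domain with a fluorescein-tagged ATP probe; 0% = vehicle and 100% = excess ADP; read after one hour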
WNV NS2B-NS3 inh: blocks West Nile virus NS2B-NS3 protease activity. P06935. WNV NS2B-NS3 protease, fluorogenic substrate Ex360/Em465; hits give low values. z-score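 (tested at a level between 10 and 100 µM)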. hit rate 0.18% among 65,000. AID 577;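 active = z-score at -3 or under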;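 note: score is relative to mean and spread of the compound wells of a plate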
Target sequence (P06935 1371-1501 limits assumed): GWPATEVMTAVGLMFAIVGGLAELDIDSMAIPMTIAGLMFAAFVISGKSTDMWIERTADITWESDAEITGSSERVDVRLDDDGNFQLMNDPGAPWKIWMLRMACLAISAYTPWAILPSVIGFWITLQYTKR
Target sequence (P06935 1502-1679 limits assumed): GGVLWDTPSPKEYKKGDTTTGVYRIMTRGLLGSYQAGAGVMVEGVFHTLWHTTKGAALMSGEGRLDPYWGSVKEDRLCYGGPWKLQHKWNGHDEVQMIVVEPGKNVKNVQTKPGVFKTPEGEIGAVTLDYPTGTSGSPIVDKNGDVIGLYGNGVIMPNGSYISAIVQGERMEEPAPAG
MT1-MMP reporter: MT1-MMP gene expression reporter suppression – cell-based, luciferase reporter, luminescence (AID 618) | MT1-MMP promoter luciferase reporter cells, luminescence | hit rate 0.62% among 87,000 | calls from a first round at 10 µM; hits with a dose series show EC50 in µM;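 active = over half of the reporter light lost at 10 µM or EC50 under 50 µM; inactive = the rest and hits that failed the dose series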;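 note: actives suppress MT1-MMP promoter-driven transcription so potencies describe inhibitors; HT1080 fibrosarcoma cells; overnight exposure; toxic or luciferase-blocking compounds were not removed from the actives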
The depositor's hits bear a star; i = inactive; nt = no result given; + = active, no number.

SMILES	Hsc70 ATP site	WNV NS2B-NS3 inh	MT1-MMP reporter
O=C(COC(=O)C1CCC1)NCc1ccccc1Cl	-2.1%	-0.49	i
O=C(COc1ccc(Cl)cc1Cl)Nc1ccc2nc3n(c(=O)c2c1)CCCC3	-4.0%	0.51	i
Clc1ccc2nc(SCc3nnc(-c4ccccc4)o3)[nH]c2c1	-2.9%	-1.11	i
CCc1ccc(Nc2ncc3c(n2)CC(c2ccc(OC)cc2)CC3=O)cc1 (stereo not given)	-2.2%	nt	i
COc1ccccc1-c1nnc(N(C)C(=O)C2CCCO2)s1 (stereo not given)	2.6%	0.73	i
CCCOC(=O)C1=C(C)NC2=C(C(=O)CCC2)C1c1cc(OC)ccc1OC (stereo not given)	-0.1%	-1.56	i
CCC(C(=O)NC1CCCC1)N(C(=O)Cn1nnc(-c2ccc(C)o2)n1)c1cnc2ccccc2c1 (stereo not given)	0.0%	-0.45	i
Cc1ccc(NCc2nc3ccccc3n2C)cc1	-6.2%	-1.43	i
COC(=O)c1ccc(NS(=O)(=O)N(C)C)cc1	8.9%	-1.87	i
O=C(CN1CCc2ccccc21)NC(=O)NCc1ccco1	-1.0%	0.77	i
Cc1cccc(-n2c(SCC(=O)NCc3ccco3)nnc2-c2ccco2)c1	1.2%	2.53	i
O=C(NCCc1ccccc1)/C(=N\O)c1ccccc1	-2.0%	-0.92	i
CC(=O)Nc1ccccc1Sc1ccccc1	-2.5%	0.65	i
O=c1c2c(nc3c(-c4ccc(Cl)cc4)c[nH]n13)CCCC2	-5.0%	-0.11	i
Cc1occc1-c1nnc(SCC(=O)N2CCOCC2)n1CCc1ccccc1	1.2%	0.32	i
Cc1ccc(C(=O)C(C)OC(=O)C2CC(=O)N(C3CCCCC3)C2)cc1 (stereo not given)	-6.2%	1.95	i
Brc1cccc(-c2nnc3n2CCC3)c1	-0.1%	-0.37	i
Cc1cc(NC(=O)CCC(=O)N(CC(=O)NC2CCCC2)Cc2ccco2)no1	-3.4%	nt	i
O=C(Nc1cccc(F)c1)C1CCCN1S(=O)(=O)c1cccc2cccnc12 (stereo not given)	-0.8%	0.36	i
O=C(OCN1C(=O)c2ccccc2C1=O)c1ccccc1	-1.3%	-0.11	i
CCc1ccc(C(=O)Nc2ccc(S(=O)(=O)Nc3nc(C)cc(C)n3)cc2)o1	-11.8%	-0.15	i
COc1cc(C(=O)Nc2ccc(N(C)C)cc2)cc(OC)c1OC	-7.2%	0.02	i
O=C(Cc1ccc(Br)cc1)OCC(=O)c1ccc2c(c1)OCCO2	-6.4%	nt	i
O=C1CCCN1c1cc(Cl)ccc1Cl	-1.5%	0.01	i
CCN(CC)C(=O)c1ccc2c(c1)N(Cc1ccccc1)C(=O)CS2=O (stereo not given)	1.9%	-2.62	i
O=C(OCCCN=C1NS(=O)(=O)c2ccccc21)c1ccc(F)cc1	2.5%	nt	i
CN(CC(=O)N1CCc2ccccc2C1)S(=O)(=O)c1ccc2c(c1)c(=O)n(C)c(=O)n2C	-1.2%	-0.01	i
COc1ccc(OC)c(N2C(=O)C(Cl)=C(N3CCOCC3)C2=O)c1	1.3%	0.98	i
COc1ccccc1-c1cc(C(=O)NCc2ccc(Cl)cc2)no1	-9.1%	0.27	i
CNc1nc(C(=O)O)nc(N2CCOCC2)n1	-2.5%	nt	i
CCC(NC(=O)OC(C)(C)C)C(=O)Oc1ccc2c3c(c(=O)oc2c1)CCC3 (stereo not given)	-4.0%	0.89	i
COc1ccc(Cc2nnc3c4cnn(C)c4ncn23)cc1	8.0%	-0.4	i
CC1(c2ccc3noc(-c4ccc(Cl)cc4)c3c2)OCCO1	2.9%	-0.57	i
Cc1cc2ccc(C)c(C)c2nc1SCC#N	-8.9%	0.94	i
O=C(c1c(Cl)cccc1Cl)N1CCN(c2ccccn2)CC1	6.6%	-0.85	i
O=C(CN1C(=O)NC2(CCCc3ccccc32)C1=O)N1CCN(C(=O)c2ccco2)CC1 (stereo not given)	0.6%	-0.32	i
OCC1CCCN(Cc2ccc(-c3ccccc3)cc2)C1 (stereo not given)	11.4%	-0.29	i
CCCn1nc(NC(=O)c2cccs2)c2cc3ccccc3nc21	-2.2%	nt	i
Cc1ccc(-c2ccc(/C=N/c3ncn[nH]3)o2)cc1Cl	-11.8%	0.95	i
CC(C)CC(c1nnnn1CCc1ccccc1)N1CCN(C(=O)c2ccco2)CC1 (stereo not given)	4.1%	-0.35	i
Cc1nc2ccccc2c2c1C(=O)N(C)C2=O	-2.2%	0.16	i
COc1ccccc1N1CCN(C(=O)C2c3ccccc3Oc3ccccc32)CC1	-0.4%	-0.17	+
CCOC(=O)C1=C(CN2CCOCC2)NC(=O)NC1c1cc(C)ccc1C (stereo not given)	-1.4%	-0.52	i
N=c1sccn1CC(=O)Nc1ccccc1Cc1ccccc1	-0.3%	-1.46	i
Cc1ccc(S(=O)(=O)N(Cc2cc3cc4c(cc3[nH]c2=O)OCCO4)CC2CCCO2)cc1 (stereo not given)	-8.5%	-0.89	i
CCOc1cc2c(cc1OCC)C(C(=O)O)C(c1cc(Br)c(O)c(OC)c1)N(C)C2=O (stereo not given)	-1.0%	-0.11	i
O=C(CN1CCCCC1)Nc1cccc(Br)c1	1.9%	-1.5	i
C=C(CC)C(=O)c1ccc(OCC(=O)O)c(Cl)c1Cl	4.9%	-0.34	i

As a short view, five of the compounds above:
SMILES	Hsc70 ATP site	WNV NS2B-NS3 inh	MT1-MMP reporter
OCC1CCCN(Cc2ccc(-c3ccccc3)cc2)C1 (stereo not given)	11.4%	-0.29	i
CCCn1nc(NC(=O)c2cccs2)c2cc3ccccc3nc21	-2.2%	nt	i
Cc1ccc(-c2ccc(/C=N/c3ncn[nH]3)o2)cc1Cl	-11.8%	0.95	i
CC(C)CC(c1nnnn1CCc1ccccc1)N1CCN(C(=O)c2ccco2)CC1 (stereo not given)	4.1%	-0.35	i
Cc1nc2ccccc2c2c1C(=O)N(C)C2=O	-2.2%	0.16	i

Going on with the list.
SMILES	Hsc70 ATP site	WNV NS2B-NS3 inh	MT1-MMP reporter
COc1ccc(OCCn2c(=N)n(CCO)c3ccccc32)cc1	10.9%	0.37	i
Cc1nn(-c2ccc(F)cc2)c2sc(C(=O)O)cc12	1.4%	-0.33	i
CC(C)(C)c1[nH]nc2c1C(c1cccnc1)C(C#N)=C(N)O2 (stereo not given)	-6.8%	-0.16	i
COc1ccccc1NC(=O)C(CCS(C)(=O)=O)N1C(=O)c2ccccc2C1=O (stereo not given)	-5.0%	-0.34	i
COc1ccc(N2CCN(c3oc(-c4ccco4)nc3C#N)CC2)cc1	-0.6%	-1.25	i
COc1ccc2c(CC(=O)OCC(=O)N3CCc4ccccc43)coc2c1	-7.2%	-0.19	i
O=C(OCC(=O)N1CCN(C(=O)c2ccco2)CC1)c1ccccc1Cc1ccccc1	-1.4%	-0.14	i
COc1ccc(N2CCN(C(=O)CSc3ncnc4c3cnn4-c3ccccc3C)CC2)cc1	1.2%	-0.46	i
COC(=O)[C@H](C)NC(=O)Nc1cc(OC)ccc1OC	-2.0%	-0.15	i
NS(=O)(=O)c1ccc(NC(=O)CN2CCCCC2)cc1	-2.6%	0.12	i
N=c1c2c(-c3ccccc3)c(-c3ccccc3)n(Cc3ccccc3)c2ncn1CCCn1ccnc1	1.6%	-0.6	i
COCCn1c(SCC(=O)NCc2cccs2)nnc1-c1ccc(OC)cc1	2.1%	-0.2	i

Overlap with the part before: five entries; new compounds follow.
SMILES	Hsc70 ATP site	WNV NS2B-NS3 inh	MT1-MMP reporter
COc1ccc(N2CCN(C(=O)CSc3ncnc4c3cnn4-c3ccccc3C)CC2)cc1	1.2%	-0.46	i
COC(=O)[C@H](C)NC(=O)Nc1cc(OC)ccc1OC	-2.0%	-0.15	i
NS(=O)(=O)c1ccc(NC(=O)CN2CCCCC2)cc1	-2.6%	0.12	i
N=c1c2c(-c3ccccc3)c(-c3ccccc3)n(Cc3ccccc3)c2ncn1CCCn1ccnc1	1.6%	-0.6	i
COCCn1c(SCC(=O)NCc2cccs2)nnc1-c1ccc(OC)cc1	2.1%	-0.2	i
COC(=O)C1=C(CN2CCN(C)CC2)NC(=O)NC1c1cc(C)ccc1C (stereo not given)	-1.7%	2	i
c1ccc(-c2nc(Sc3ncnc4c3cnn4-c3ccccc3)n[nH]2)cc1	-0.5%	0.35	i
Cc1cc(C)c2c(n1)nn1c(N3CCN(c4ccccc4)CC3)cc(C)nc21	-5.3%	-0.43	i
CC(=O)c1ccc(OC(=O)c2cccs2)cc1	-4.5%	-0.88	i
CC(C)(C(N)=O)N1CCN(c2ncc(C(F)(F)F)cc2Cl)CC1	7.4%	nt	i
COc1ccccc1NC(=O)N(Cc1ccco1)Cc1cc2cccc(C)c2[nH]c1=O	-0.1%	-0.2	i
Cc1ccc(NC(=O)C2C(=O)N(CCO)C3(C)CC2c2ccccc2O3)cc1 (stereo not given)	-1.2%	-0.37	i
Nc1nnc(SCCOc2ccc(Br)cc2)s1	4.7%	0.19	i
c1ccc(-n2ncc3c(NCc4ccccn4)ncnc32)cc1	-0.6%	0.00874	i
CCN(CC)c1ccc(-c2c(C#N)c(N)nc(OC)c2C#N)cc1	-8.8%	0.31	i
CC1CCc2cc(F)ccc2N1C(=O)CSc1nnc(-c2cccs2)n1C (stereo not given)	-1.8%	-0.71	i
CCc1nc(N2CCCC2C(=O)O)c2oc3ccccc3c2n1 (stereo not given)	4.8%	-0.03	i

Looked up above:
COC(=O)C1=C(CN2CCN(C)CC2)NC(=O)NC1c1cc(C)ccc1C (stereo not given) | WNV NS2B-NS3 inh = 2
Cc1ccc(NC(=O)C2C(=O)N(CCO)C3(C)CC2c2ccccc2O3)cc1 (stereo not given) | Hsc70 ATP site = -1.2%
Nc1nnc(SCCOc2ccc(Br)cc2)s1 | Hsc70 ATP site = 4.7%
CCc1nc(N2CCCC2C(=O)O)c2oc3ccccc3c2n1 (stereo not given) | WNV NS2B-NS3 inh = -0.03

The list goes on:
SMILES	Hsc70 ATP site	WNV NS2B-NS3 inh	MT1-MMP reporter
CCN1CCN(C(=O)c2oc(=O)c3ccccc3c2-c2ccc(C)cc2)CC1	2.0%	-0.77	i
O=C(CSc1nnc(-c2cccnc2)n1Cc1ccco1)NCc1ccc2c(c1)OCO2	-7.2%	0.03	i
O=C(Cn1nnc2ccccc21)OCC(=O)c1ccc(Cl)c(Cl)c1	2.5%	nt	i
CC1(C)Cc2cccc(OCC(=O)N3CCN(S(=O)(=O)c4ccc(F)cc4)CC3)c2O1	-6.0%	-0.2	i
COc1cccc(-c2[nH]nc3c2C(c2ccc(C)o2)C(C#N)=C(N)O3)c1 (stereo not given)	0.5%	nt	i
O=C(OCc1cc2ccccc2[nH]c1=O)c1ccccc1	-1.9%	0.01	i
O=C(CCCCCN1C(=O)CCC1=O)Nc1ccc2c(c1)OCO2	5.4%	-0.13	i
CCCC(=O)Nc1nc2ccc(OC)cc2s1	-2.9%	1.45	i
O=C(Nc1cc(Cl)ccc1O)C1CCCO1 (stereo not given)	-4.8%	-0.43	i
CC(C)C1Oc2ccccc2N(CC(=O)NCCCN2C(C)CCCC2C)C1=O (stereo not given)	-1.7%	0.03	i
CC(C)(C)c1ccc(CN2C3=NCCCN3c3ccccc32)cc1	3.0%	nt	i
CCOc1ccc(C(CC(=O)O)NC(=O)c2ccco2)cc1OC (stereo not given)	7.1%	-0.93	i
O=C(CCCC(=O)N1CCCc2ccccc21)N1CCCc2ccccc21	4.2%	2.11	i
Cc1cc(Cl)ccc1OCCCC(=O)N1CCCCC1	5.2%	nt	i
CCOc1cc(C2c3c(oc4cc(C)c(Cl)cc4c3=O)C(=O)N2Cc2ccco2)ccc1O (stereo not given)	4.4%	-0.94	i
O=C(Nc1ccc(NC(=O)c2ccco2)nc1)c1cccnc1	10.2%	-0.39	i
Cc1cc(C)c(OCC(=O)Nc2ccccc2N2CCOCC2)c(C)c1	7.2%	0.7	i
O=C(CSc1nnc(CNc2ccc(Cl)cc2)o1)Nc1nc2c(s1)CCCC2	-2.9%	-0.24	i
COc1ccc(CCn2c(N)cc(=O)[nH]c2=S)cc1OC	-0.9%	-0.41	i
CCOC(=O)N1CCN(S(=O)(=O)c2ccc(C(=O)Nc3nc4ccccc4s3)cc2)CC1	-2.6%	1.68	i
Fc1cccc(CN2CCCCCCC2)c1	-4.4%	-0.92	i
COC(=O)[C@H](C)NC(=O)Nc1ccc(OC)c(OC)c1	-5.4%	-0.62	i
Cc1nc2c(C(=O)N3CCN(c4ccccn4)CC3)cnn2c(C)c1Cc1cccc(Cl)c1	-15.4%	-1.68	i
CC(=O)NC1=NN(C(C)=O)C(C)(CS(=O)(=O)c2ccc(C)c(C)c2)S1 (stereo not given)	0.4%	nt	i
CCOC(=O)c1cccc(NC(=O)C2CCCO2)c1 (stereo not given)	-4.4%	2.2	i
CC(C)OC(=O)c1cn(-c2ccccc2)nc1-c1ccc2c(c1)OCCO2	0.7%	nt	i
Cc1ccc(S(=O)(=O)N2CCN(C(=O)CN3CCN(C)CC3)C2)cc1	1.3%	0.92	i
Cc1cc(NC(=O)NC(=O)c2cccc(OC(F)(F)C(F)F)c2)n[nH]1	2.6%	0.59	i
Cc1nnc(SCC(=O)N2CCCc3ccccc32)[nH]c1=O	4.3%	nt	i
N#Cc1ccc(CSc2nnc(-c3ccncc3)n2CCc2ccccc2)cc1	4.1%	2.6	i
CCNS(=O)(=O)c1ccc(NC(=O)Cc2ccc(F)cc2)cc1	3.9%	-0.84	i
CN(CC(=O)OCC(=O)NC(=O)c1cccn1C)S(=O)(=O)c1ccc(Cl)cc1	7.4%	nt	i
O=C(CCCOc1ccc(Cl)cc1)N1CCOCC1	-4.4%	0.14	i
COc1ccc(N2CCN(C(=O)c3ccc(NS(=O)(=O)c4cccc(F)c4)cc3)CC2)cc1	-2.2%	0.27	i
